# Sfp inh: qHTS Assay for Inhibitors of Bacillus subtilis Sfp phosphopantetheinyl transferase (PPTase) | AID 1490, 2009 | actives 3.5% (n = 310,000) | 4'-phosphopantetheinyl transferase ffp (Bacillus subtilis), Q9F4F7 | Biochemical Sfp PPTase activity, qHTS | Potency, µM, without a hit: max response, negative = inhibition, usual class: inhibitors; active = well fitted inhibition curve with a large enough effect; inconclusive = small, poorly fitted or top-dose-only effect, or another doubt; inactive = no such curve, though single readings can be large or run the other way;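 also: the enzyme is Sfp with the accession as filed and its product quenches rhodamine fluorescence; potency is read from the fitted curve at half-maximal effect; 0% = enzyme reaction without inhibitor and -100% = no enzyme wells; top concentration of the series not given in the record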
#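 With Hepes-Na pH 7.6 buffer containing 10 mM MgCl2, Sfp (15 nM) modified BHQ-2-YbbR (12.5 uM) using rhodamine-CoA (5 uM). Two reads 30 minutes apart at 525/598 nm yielded each well's rate.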
# TRPML1 blocker: qHTS for Inhibitors of the Human Mucolipin Transient Receptor Potential 1 (TRPML1); TRPML1-inducible cells, Ca2+ dye fluorescence, FDSS; active compounds read low; inhibition of EC80 agonist-evoked calcium signal; activity change, negative = inhibition, % (test concentration not listed); actives 0.02% (n = 390,000); in the data active means activity change below about -50%; inconclusive means about -30% to -50%; inactive means above about -30%;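 also: stimulus is agonist 54-4 at its EC80 concentration; % is scaled to controls: 0 for no effect and ±100 for the full control effect; compound concentration not given in the record; the text of the record puts the active cut at -80%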
# Target sequence (Q9GZU1 whole entry, looked up): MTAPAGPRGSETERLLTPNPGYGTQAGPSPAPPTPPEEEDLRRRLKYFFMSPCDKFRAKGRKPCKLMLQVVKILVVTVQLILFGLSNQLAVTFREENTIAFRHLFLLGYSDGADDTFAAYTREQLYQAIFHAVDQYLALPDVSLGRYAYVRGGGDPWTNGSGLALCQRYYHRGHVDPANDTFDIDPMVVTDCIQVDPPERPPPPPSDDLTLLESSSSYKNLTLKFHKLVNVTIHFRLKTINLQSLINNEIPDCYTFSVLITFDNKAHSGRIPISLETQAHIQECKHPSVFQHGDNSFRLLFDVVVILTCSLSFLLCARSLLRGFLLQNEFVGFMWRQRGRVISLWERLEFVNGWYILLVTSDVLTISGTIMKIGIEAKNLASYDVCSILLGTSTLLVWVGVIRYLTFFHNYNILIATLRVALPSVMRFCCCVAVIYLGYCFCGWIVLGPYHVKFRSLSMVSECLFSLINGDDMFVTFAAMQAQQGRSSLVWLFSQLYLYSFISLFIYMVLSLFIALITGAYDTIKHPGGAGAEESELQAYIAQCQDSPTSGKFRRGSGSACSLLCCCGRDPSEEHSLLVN
#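 TRPML1-DL cells, Tet-induced overnight (~16 h, 37 °C) at 1,500 cells/well, were loaded with Ca8 no-wash dye plus quencher for 45-90 min at room temperature. Compounds were pinned during FDSS kinetic reading; agonist 54-4 at EC80 (4 uM final) then added.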
# gsp ag: qHTS for Agonist of gsp, the Etiologic Mutation Responsible for Fibrous Dysplasia/McCune-Albright Syndrome: qHTS | gsp mutant cells, cAMP HTRF, 30 min; control for the full effect not named in the record | Potency, µM (top dose mostly 76.9 µM), without a hit: at the top dose activation (cAMP increase), most hits filed as activators | actives 0.13% (n = 340,000) | AID 624287, 2012; active = well fitted activation curve with a large enough effect; inconclusive = small, poorly fitted or top-dose-only effect, or another doubt; inactive = no such curve, though single readings can be large or run the other way; cell line not stated here;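 also: phosphodiesterase inhibitor Ro 20-1724 added with compounds to block cAMP breakdown; potency is read from the fitted curve at half-maximal effect; nearly all actives have a fitted effect of over 60% in size; about a fifth of the inactives were tested at one dose only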
#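 Cells stably selected in G418 were plated at 2000/well, grown 16-24 hr, then given compounds in DMSO with the PDE inhibitor […] (300 uM solution added) for 30 min at 37C; cAMP was read by HTRF.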
# gsp antagonist: qHTS for Antagonists of gsp, the Etiologic Mutation Responsible for Fibrous Dysplasia/McCune-Albright Syndrome: qHTS; gsp-mutant cells, cAMP HTRF, 30 min; control for the full effect not named in the record; actives 0.4% (n = 340,000); Potency, µM (highest dose often 76.9 µM), without a hit: at the top dose activity change, negative = inhibition, usual class: inhibitors; AID 624288, 2012; active = falling curve of any shape with a large fitted effect; inconclusive = falling curve, mostly with a smaller effect; inactive = flat or rising curve; cell line not stated here;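 also: intracellular cAMP measured with PDE inhibitor Ro 20-1724 present during compound exposure; potency is read from the fitted curve at half-maximal effect; % is scaled to controls: 0 for no effect and ±100 for the full control effect; nearly all actives have a fitted effect of over 65% in size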
#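 Measurement of cellular cAMP by homogeneous time-resolved fluorescence following a 30 min compound exposure at 37C. The PDE inhibitor […] was present throughout; the assay buffer was DPBS with 0.05% BSA and 0.005% Tween 20.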
# ClpP mod: qHTS Assay for Activators of ClpP. ATP-dependent Clp protease proteolytic subunit (Bacillus subtilis (strain 168)), P80244. purified B. subtilis ClpP, FRET peptide cleavage, 20 min. Potency, µM (top dose mostly 57.5 µM), without a hit: at the top dose activity change, negative = active. actives 1.9% (n = 340,000); active = well fitted falling curve with a large enough effect; inconclusive = small, poorly fitted or top-dose-only effect; inactive = no such curve, though single readings can be large or run the other way; also: potency is read from the fitted curve at half-maximal effect; the source files actives as falling curves though it sought activators and does not explain the sign; nearly all actives have a fitted effect of over 65% in size; many hits overshoot -100%
# Target sequence (P80244 whole entry, looked up): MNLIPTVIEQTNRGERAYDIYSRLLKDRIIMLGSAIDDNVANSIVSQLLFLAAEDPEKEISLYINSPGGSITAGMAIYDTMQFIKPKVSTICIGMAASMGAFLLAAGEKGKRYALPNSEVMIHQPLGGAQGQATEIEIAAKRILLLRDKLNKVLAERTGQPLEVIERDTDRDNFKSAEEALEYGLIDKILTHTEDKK
#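 Buffer: 100 mM Tris/HCl pH8, 100 mM KCl, 0.05% low protease BSA, 2.5% glycerol, 0.01% Tween-20. ClpP 10 microg/mL final; 20 min RT; delta FRET normalized to ADEP and DMSO controls.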
# Menin-MLL FL inh: qHTS Assay for Inhibitors Targeting the Menin-MLL Interaction in MLL Related Leukemias: Competition With Fluorescein Labeled MLL-derived Peptide; Fluorescence polarization, fluorescein-MLL peptide displacement from menin; FP activity change, % at 61.4 µM; 290,000 tested, under 10 active; inconclusive = falling polarisation curve, or a change in total fluorescence; inactive = total fluorescence flat and polarisation flat or rising; no compound was filed as active; the % refers to the polarisation; negative = inhibition;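 also: % of control where 0% means no effect; inhibitors lower the polarisation; unlabelled MLL peptide was the positive control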
# TRPV1 potentiator: HTS Assay for Compounds that Act as Potentiators of the Vanilloid Receptor 1; Transient receptor potential cation channel subfamily V member 1 (Homo sapiens), Q8NER1; actives 0.02% (n = 320,000); TRPV1-expressing cells, Fluo-8 calcium influx, capsaicin EC20 potentiation; host cell line not named in the record; control for the full effect not named in the record; AID 540277, 2011; potentiation, % at 8.33 µM; active means potentiation above 80%; inconclusive means 30% to 80%; inactive means below 30%; also: 0% is about no effect
#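 Cells expressing TRPV1 were dye-loaded with Fluo-8 and read kinetically: 10 s baseline, 3 min after compound (agonist portion), then 2 min after EC20 capsaicin (allosteric enhancer portion). Calcium-bound dye fluorescence at 480/520 nm.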
# Active calls of the source: *; ? = inconclusive; · = no result given; & = joins results of further samples; [ ] = remark or other dose.
SMILES,Sfp inh,TRPML1 blocker,gsp ag,gsp antagonist,ClpP mod,Menin-MLL FL inh,TRPV1 potentiator
Cc1ccc(C(=O)N2CCN(C/C=C/c3ccccc3)CC2)cc1S(=O)(=O)N1CCOCC1,·,-10,30%,-12%,-1.4%,·,·
Nn1c(SCC(=O)Nc2ccc3c(c2)OCCO3)nnc(CCC(=O)O)c1=O,6%,11,9%,8%,-1.6%,-1.5,-4
CN(C)c1cc(NC(=O)CN2CCCC2)c2ccccc2n1,?,2,-17%,2%,·,4.6,?
COc1ccc(C(c2nnnn2CCc2ccccc2)N2CCN(C)CC2)cc1OC (centres undefined),1%,-1,-25%,-22%,-3.5%,1.7,-4
CCc1ccc(-n2c(=O)c3ccccc3n(CC(=O)C(C)(C)C)c2=O)cc1,11%,32,2%,-20%,-9.5%,-6.8,-20
O=C1CCc2cc(S(=O)(=O)NCCCC(=O)N3CCN(Cc4ccc5c(c4)OCO5)CC3)ccc2N1,10%,8,4%,4%,-2.1%,1.4,20
O=C(O)c1ccc(NC(=O)c2cn(-c3ccccc3)nc2-c2ccc(Br)cc2)cc1,4%,6&3,27%,-30%,-2.2%,-1.1,5
CC1C(c2ccccc2)OCCN1C(=S)Nc1ccc(S(=O)(=O)N2CCCCC2)cc1 (centres undefined),·,7,-47%[inhibitor],·,-0.6%,·,·
Oc1ccc(N2CCN(c3ccnc4cc(Cl)ccc34)CC2)cc1,?,-24,-18%,-11%,·,1.3,-14
CCOC(=O)/C(C#N)=C/C1=C(N2CCCC2)CC(C)(CC)OC1 (centres undefined),27%,1,-50%,-8%,-1.4%,2.7,-11
O=C(COC(=O)c1ccc(Cl)nc1)NCc1ccco1,21%,2,5%[15.4 µM],12%,·,-3.3,4
CCCCn1c(N)c(N(CC(C)C)C(=O)CN(C)Cc2cccc(OC)c2)c(=O)[nH]c1=O,8%,3,-28%,-2%,0.8%,5.2,-11
O=c1c(=O)n(O)c2ccccc2n1O,79µM*,3,-3%,-2%,0.1%,-9.9,4
CCc1cc(CNC(=O)c2cc(COc3ccc(C)nc3)on2)on1,24%,6,20%[15.4 µM],7%,-3.4%,·,5
COc1ccc(Cc2nnc(NC(=O)c3cc(OC)cc(OC)c3)s2)cc1,0%,?,-18%,-3%,-1.5%,-0.3,2
Cc1cc2nnc(SCc3ccc4c(c3)OCO4)n2c2ccccc12,·,34,4%[15.4 µM],-12%,·,·,·
COc1ccc(/C=C/C(=O)OCC(=O)Nc2ccc(Cl)c(S(=O)(=O)N(C)C)c2)cc1OC,6%,6,-12%[15.4 µM],-19%,-2.5%,5.9,-2
O=C(/C=C/NCc1ccc(F)cc1)c1ccccc1,7%,5,6%,1%,-5.2%,5.0,-8
COc1ccc(CC2SC(=Nc3ccc(F)cc3)NC2=O)cc1 (centres undefined),3%,5,-41%[inhibitor],-4%,·,0.1,?
O=c1[nH]nc(Cc2ccccn2)c2ccccc12,11%,-13,-54%[inhibitor],-3%,-1.0%,-2.9,-3
COc1ccc(C(=O)CCC(=O)Nc2cc(Cl)c(O)c(Cl)c2)cc1,-2%,6,1%,4%,·,11,-17
Cn1cccc1/C=C1\SC(=Nc2cccc(O)c2)NC1=O,-20%,10,-16%,-6%,-1.0%,?,-9
CN1CCN(C2CCCCCC2)CC1,11%,2,1%,-1%,-0.2%,1.8,-36
O=C(Nc1cccc(O)c1)c1cccc(S(=O)(=O)Nc2cccc(O)c2)c1,7%,-19,2%,3%,·,0.0,?
Cc1cccc(NC(=O)CSCC(=O)Nc2nnc(C3CC3)s2)c1,-5%,4,?,5%,0.6%,-3.6,6
NC(=O)CCC(NC(=O)c1ccc(Cl)cc1)C(=O)NCCc1ccc2c(c1)OCCO2 (centres undefined),·,12,11%,10%,1.5%,·,2
CC(NC(=O)COC(=O)CCc1nc2ccccc2c(=O)[nH]1)c1ccccc1 (centres undefined),4%,-20,0%[15.4 µM],5%,0.1%,2.7,-2
COc1ccc(CN(C)S(=O)(=O)c2nnc(NC(=O)c3cccc(C)c3)s2)cc1OC,12%,-11,?,-14%,-2.5%,·,1
CC(C)(CNS(=O)(=O)c1cccs1)N1CCOCC1,·,4,-8%,7%,·,·,·
C#CCn1c(=O)c2c(ncn2C)n(C)c1=O,18%,8,·,5%,-0.3%,1.2,·
CCn1c2ccccc2c2cc(NC(=O)CSc3nnc(-c4ccc(OC)cc4)n3N)ccc21,-9%,-11,0%,-1%,-3.4%,1.7,10
CC(C)C(=O)N1CCN(c2ccccc2NC(=O)c2ccc3c(c2)OCCO3)CC1,·,9,8%[15.4 µM],8%,·,·,·
COc1cccc(NC(=O)N(C)C[C@H]2OCc3cn(nn3)CCCC(=O)N([C@@H](C)CO)C[C@@H]2C)c1,·,-10,-9%,·,-3.4%,·,·
Cc1ccc2nc(SCC(=O)N/N=C/c3ccc(C(=O)O)cc3)cc(C)c2c1,8%,3,?,4%,1.3%,4.0,9
O=c1cc(-c2ccccc2)nc(SCc2ccc(F)cc2)[nH]1,-3%,-12,-17%,11%,-0.9%,6.8,4
Cc1cccc(-n2c(CNC(=O)COc3ccccc3)nnc2SCC(=O)Nc2nccs2)c1,5%,-15,-22%,12%,-1.6%,-2.4,·
CCc1ccc(C2NC(=S)NC3=C2C(=O)CCC3)cc1 (centres undefined),11%,-9,-3%,-1%,3.0%,-0.5,-11
COc1ccc(C(C(=O)NC2CCCCC2)N(C(=O)c2ccco2)c2ccccc2C(C)=O)cc1OC (centres undefined),-2%,-5,12%[15.4 µM],-4%,·,·,-13
Cc1cc2oc3c(c(=O)c2cc1C)C(c1cccc(Br)c1)N(Cc1ccco1)C3=O (centres undefined),14%,-7,-6%,-17%,0.8%,0.4,8
O=C(O)c1cnc(-c2ccccc2)nc1Sc1ccccc1Cl,21%,20,-2%,-40%,-1.2%,1.4,-14
O=C(CSc1nnnn1Cc1ccccc1)NC1CCCCC1,20%,8,0%,9%,·,2.3,-8
Cc1ccc(CNC(=O)CCC(=O)N2CC(C)Oc3ccccc32)cc1 (centres undefined),10%,9,-41%[inhibitor],3%,-3.7%,-4.0,-3
CC[n+]1c(/C=C2\C=C(C)CC(C)(C)C2)sc2ccccc21,11µM*,-5,8%,-16%,0.0%,15,-4
COc1ccccc1N1CCN(CC(O)c2c(C)[nH]c3ccccc23)CC1 (centres undefined),7%,-17,-7%,7%,-6.6%,1.1,10
CCC1(C)CC(C(CC(=O)O)c2ccc(C)cc2)CCO1 (centres undefined),15%,7,-12%,-16%,1.4%,-1.8,-4
CN(CC(=O)Nc1cccc(F)c1)C(=O)c1cccc(N2C(=O)CCC2=O)c1,·,8,-3%,12%,0.6%,·,2
CCn1c(SCC(=O)N/N=C/c2ccc(C)o2)nnc1-c1ccc(C(C)(C)C)cc1,-7%,16,7%,-25%,-1.5%,4.3,-13
Cc1ccc(S(=O)(=O)N2CCN(C(=O)N3CCCC3)CC2)cc1,20%,0,?,1%,·,-0.6,11
Cc1ccc(OCc2ccc(C(=O)N3CCCC3)o2)c([N+](=O)[O-])c1,8%,32,15%[15.4 µM],-40%,0.2%,4.8,1
O=C(CCc1nnc2ccc(N3CCC4(CC3)OCCO4)nn12)NCc1ccccc1Cl,-3%,0,?,-3%,-1.1%,0.5,21
COCc1c(C(=O)NC2CCCCC2)sc2cccc(F)c12,·,12,31%,-20%,-0.4%,·,-6
Cc1cccc(Nc2nnc(SCC(O)=C(C#N)c3nc4ccccc4[nH]3)s2)c1,·,2,17%,-13%,·,·,·
On1c(-c2ccc(Cl)cc2Cl)nc2ncccc21,13%,-9,-2%,6%,·,-0.3,2
Cc1cc(N2CCCC2)n2nc(C)c(-c3ccccc3)c2n1,-8%,·,·,·,·,0.9,-17
C=CCn1c(COc2ccccc2C)nnc1SCC(=O)O,17%,-5,-27%,8%,-1.5%,2.2,-2
O=C(COC(=O)CNS(=O)(=O)c1c(Cl)cccc1Cl)Nc1cccnc1Cl,-4%,8,-13%,-1%,-0.9%,0.0,5
CC(=O)c1c(C)[nH]c(C(=O)NCc2ccc(C)cc2)c1C,16%,-1,0%,-5%,1.1%,6.5,24
CCN1C(=NCCCCO)N[C@@H](c2cccc(C(F)(F)F)c2)C(C(=O)OC)=C1C,16%&-2%,23,3%,10%,-0.2%,-0.4&-2.0,2&18
CCOC(=O)N1CCC(NC(=O)C(Cc2ccccc2)NC(=O)C2CCCCC2)CC1 (centres undefined),-8%,11,10%,2%,-4.4%,1.1,11
O=C1CN(C(=O)COC(=O)/C=C/c2ccc(F)cc2)c2ccccc2N1,·,-9,-1%,8%,·,·,·

# Following part
SMILES,Sfp inh,TRPML1 blocker,gsp ag,gsp antagonist,ClpP mod,Menin-MLL FL inh,TRPV1 potentiator
O=C(c1ccc(Cl)cc1)c1c[nH]cc1-c1ccccc1,2%,-12,-24%,-8%,0.4%,-1.4,-6
CCc1cccc(C)c1NC(=O)c1cccc(N(C)C)c1,56µM*,5,-23%,-5%,-4.0%,6.3,4
CCN(CC)c1ccc(C2NCC(c3ccc([N+](=O)[O-])cc3)O2)cc1 (centres undefined),6%,5,22%,7%,-2.2%,3.3,?
CCCCNC(=S)NNC(=O)c1cc(C2CC2)nc2ccccc12,18%,-15,?,-9%,20%,3.2,4
CN(C)C=Nc1ccc(Cl)c(Cl)c1,18%,2,3%,9%,·,1.4,2

# Compound activity as filed in PubChem BioAssay.

# Random draw from the library; about 4.9% have a hit in one of these screens.
